Bioassay records as filed in PubChem.
CapD inh – inhibitors of Bacillus anthracis CapD enzyme; z-score (test concentration not listed); AID 492967; 0.23% of 140,000 active; purified CapD enzyme, fluorescence intensity read-out; active compounds read low; some hits fall short of the stated cut;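 active = z-score under -4 in either of two replicates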;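 also: stock transfer was 100 nL into about 40 µL; score is relative to mean and spread of the plate; one replicate is shown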
AID504770 – E. coli YBA685 growth inhibition, screen for V. cholerae RctB inhibitors | E. coli YBA685 rctB-dependent plasmid, OD600 growth, 3 h; active compounds read low | z-score (concentration not given with the values) | 0.27% of 130,000 active | AID 504770;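 active = z-score under -2 on both plates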;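 also: wells of about 30 µL received 100 nL stock; score is relative to mean and SD of the test wells; the first replicate is given; strong numbers were not always called active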
Active calls of the source: *; nt = no result given; & = joins results of further samples.

SMILES	CapD inh	AID504770
O=C(N/N=C/c1ccc(OC(F)F)cc1)c1cc(-c2ccco2)nc2ccccc12	nt	0.65
COc1cc(CN2CCN(c3ncccn3)CC2)ccc1O	0.48	-1.05
Nc1nc(C2CC2)c(Sc2sc(N)nc2C2CC2)s1	-0.355	0.4
O=C(CNC(=O)OCc1ccccc1)NC1CCCCCC1	nt	0.2
CC(C)CCN1NC2(CCCC(C)C2)NC1=S (centres undefined)	0.14	-0.4
O=C(Nc1cccc(Cl)c1)N1CCN(CCO)CC1	0.355	-0.4
O=C(NCC(F)(F)F)c1ccc(S(=O)(=O)N2CCCc3ccccc32)cc1	nt	-0.2
CC(C)(C)OC(=O)Nc1cccc(C(=O)OCC(=O)Nc2ccc(N3CCOCC3)cc2)c1	nt	0
CC(C)C(=O)Nc1ccccc1-c1nc2ccccc2[nH]1	1.82	-0.25
Cc1ccc(N2Cc3cc(C)c(C)cc3C2)cc1	-0.185	0
O=C(NCC1COc2ccccc2O1)c1cccc(S(=O)(=O)N2CCOCC2)c1 (centres undefined)	nt	0.55
CCCOc1ccc(C(=O)Nc2ccc3c(c2)Cc2ccccc2-3)cc1	47.6	-0.25
Cc1ccc(C(=O)CN(Cc2ccccc2)Cc2ccccc2)cc1	0.175	-1.05
Cc1ccc(C)c(CSc2nncn3c2cc2occc23)c1	0.44	0
CC1CCCN(C(=O)CSc2ncnc3ccccc23)C1 (centres undefined)	nt	-0.8
CCCN(C(=O)c1oc(=O)c2ccccc2c1-c1ccccc1)c1ccccc1OC	0.03	1.8
CCOC(=O)c1cc2c(Cl)cc(Cl)cc2n1C(=O)OC(C)(C)C	-0.085	-0.25
CCOC(=O)c1oc2cc(N)ccc2c1C	nt	-0.7
Cc1ccc(NCC(O)Cn2c(-c3ccccc3)c(-c3ccccc3)c3cc(C)cc(C)c32)cc1 (centres undefined)	6.71	nt
NS(=O)(=O)c1ccc(CCNC(=O)c2ccc(S(=O)(=O)N3CCCCC3)cc2)cc1	nt	-0.65
CC1(C)CC2(CC(c3ccccc3)Oc3cc(O)ccc32)NC(=S)N1 (centres undefined)	-0.235	nt
Cc1ccc(C(=O)OCC2OC(C#N)CC2OC(=O)c2ccc(C)cc2)cc1 (centres undefined)	0.31	-0.4
O=C(NCCc1ccccc1)C1CCCN(S(=O)(=O)c2ccc3[nH]c(=O)oc3c2)C1 (centres undefined)	0.845	0
O=C1/C(=C/c2ccco2)Cc2ccccc21	-0.03	-0.85
COC(=O)C1=C(C(=O)OC)SC2(S1)C(C(=O)OC)=C(C(=O)OC)SC1=C2c2cc(OC)ccc2N(C(=O)C(C)C)C1(C)C	-0.485	nt
O=S(=O)(c1ccccc1)N1N=C(c2ccccc2)CC1c1ccc(Cl)cc1 (centres undefined)	-0.04	nt
CC(C)c1ccc(OCc2ccc(C(=O)OCCN3CCCCC3)o2)cc1	0.57	-0.45
Cc1csc(C(C#N)C(=O)CSc2nncn2-c2ccccc2)n1 (centres undefined)	nt	-0.8
CN(C)c1cccc(C(=O)N2N=C(C(F)F)CC2(O)C(F)F)c1 (centres undefined)	-0.285	-0.6
Nc1ccc(Oc2ccc3c(c2)C(=O)N(CCO)C3=O)cc1	-0.74	-1.1

Continued, overlapping the part above by 3 compounds.
SMILES	CapD inh	AID504770
Cc1csc(C(C#N)C(=O)CSc2nncn2-c2ccccc2)n1 (centres undefined)	nt	-0.8
CN(C)c1cccc(C(=O)N2N=C(C(F)F)CC2(O)C(F)F)c1 (centres undefined)	-0.285	-0.6
Nc1ccc(Oc2ccc3c(c2)C(=O)N(CCO)C3=O)cc1	-0.74	-1.1
O=C(NCCNc1ccc([N+](=O)[O-])cn1)OCc1cccc(Oc2ccccc2)c1	-2.88	nt
NC1=NC(=O)/C(=C\c2ccc(OC(=O)c3ccccc3Cl)cc2)S1	0.195	nt
CC1(C)C(=O)Nc2ccccc2N1C(=O)Cn1cnc2sccc2c1=O	nt	-0.15
Cc1ccc(OCC(O)CN2C(=O)c3ccccc3C2=O)cc1 (centres undefined)	0.19	-0.25
Oc1ccc(-c2ccccc2)c(F)c1	0.14	0.9
CCOC(=O)c1c(C)n(-c2ccccc2)c2ccc(OC(=O)c3c(-c4ccccc4Cl)noc3C)cc12	-1.03	nt
Cc1ccc(-n2cnnn2)cc1S(=O)(=O)NC(C)(C)C	nt	-1.1
CC(C)(C)SC(=O)c1cccnc1SCCS(=O)(=O)c1cccc(C(F)(F)F)c1	0.435	0.2
COc1ccc(-n2c3c(cc(C(=O)N4CCN(CCO)CC4)c2=O)C(=O)CC(C)(C)C3)cc1	0.705	nt
CCN(CC(=O)NCc1cccs1)C(=O)c1ccc(C)s1	nt	-0.3
Cc1cccc(CC(CC(=O)O)C(=O)N2CCN(c3ccc(C(F)(F)F)cn3)CC2)c1 (centres undefined)	5.56	nt
CC(CCc1ccccc1)NC(=O)C1CCN(S(=O)(=O)N2CCOCC2)CC1 (centres undefined)	1.22	-0.05
N#C/C(=C\c1cn(CCOc2ccccc2)c2ccccc12)C(=O)N1CCCC1	nt	0.1
COc1ccc2cc3cc(C(=O)NCCc4ccc(OC)c(OC)c4)oc3nc2c1	57.8	2.8
COc1ccc(C2CC(c3ccc(Br)cc3)=NN2C(=O)CCC(=O)O)cc1OC (centres undefined)	-2.01	nt

Structural class, those above with an aryl methoxy group (six)
SMILES	CapD inh	AID504770
COc1cc(CN2CCN(c3ncccn3)CC2)ccc1O	0.48	-1.05
CCCN(C(=O)c1oc(=O)c2ccccc2c1-c1ccccc1)c1ccccc1OC	0.03	1.8
COC(=O)C1=C(C(=O)OC)SC2(S1)C(C(=O)OC)=C(C(=O)OC)SC1=C2c2cc(OC)ccc2N(C(=O)C(C)C)C1(C)C	-0.485	nt
COc1ccc(-n2c3c(cc(C(=O)N4CCN(CCO)CC4)c2=O)C(=O)CC(C)(C)C3)cc1	0.705	nt
COc1ccc2cc3cc(C(=O)NCCc4ccc(OC)c(OC)c4)oc3nc2c1	57.8	2.8
COc1ccc(C2CC(c3ccc(Br)cc3)=NN2C(=O)CCC(=O)O)cc1OC (centres undefined)	-2.01	nt

Further records follow:
SMILES	CapD inh	AID504770
CCOC(=O)Cc1csc(NC(NC(=O)CC)(C(F)(F)F)C(F)(F)F)n1	0.27	0.5
COc1ccc(-c2noc(CN3CCCCC3)n2)cc1OC	0.355	1.25
Cn1c2c(c(=O)n(C)c1=O)C(c1cccc(Br)c1)C1C(=O)c3ccccc3C1=N2 (centres undefined)	-0.04	nt
Cc1ccc(CNC(=O)c2ccc(Cl)cc2)c(=S)[nH]1	-1.56	-0.7
O=S(=O)(Nc1ccccn1)N1CCCCCC1	nt	2.25
Cc1sc(C)c(CNc2ccccc2)c1CNc1ccccc1	-0.025	-0.3
COc1c(N2CCNC(C)C2)c(F)cc2c(=O)c(C(=O)O)cn(C3CC3)c12 (centres undefined)	nt	-3.55*
CSc1nc(N)nc(SCC(=O)Nc2nc3ccccc3s2)c1C#N	0.11	nt
O=C(CS(=O)(=O)c1cccc(C(F)(F)F)c1)Nc1ccccc1Cl	-0.395	nt
O=C(NCCO)c1c(Cl)nc2ccccn12	0.45	0.15
Fc1ccc(C(CCCN2CCN3CCCCCC3C2)c2ccc(F)cc2)cc1 (centres undefined)	0.22	-0.85
COc1cc(OC)cc(C(=O)NCC2C(C=C(C)C)C2(C)C)c1 (centres undefined)	-0.22	nt
Cc1cc(C(=O)O)c(C)n1-c1cc(C(F)(F)F)cc(C(F)(F)F)c1	0.075	-0.5
O=S(=O)(Cc1ccccc1Cl)N1CCN(Cc2ccc3c(c2)OCO3)CC1	-0.33	-0.45
COCCNC(=O)CCc1nc(OC)cc(OC)n1	-0.1	nt

One compound at a time (already shown).
CCOC(=O)Cc1csc(NC(NC(=O)CC)(C(F)(F)F)C(F)(F)F)n1 across the screens: CapD inh: 0.27; AID504770: 0.5
O=S(=O)(Nc1ccccn1)N1CCCCCC1 across the screens: CapD inh: nt; AID504770: 2.25

Following part:
SMILES	CapD inh	AID504770
CCC(CC)c1nc2ccccc2n1C	nt	-0.15
Cc1ccc(-c2nnc(N3CCCCC3)c3ccccc23)cc1S(=O)(=O)NCc1ccccn1	-1.19	0.8
CCc1ccc(NC(=O)Cn2ncn3cccc3c2=O)cc1	-1.13	-0.3
O=S1(=O)N=C(Nc2nc(-c3ccccc3)cs2)c2ccccc21	-3.78	-0.95
Cn1nc(CC(=O)Nc2nn[nH]n2)c2ccccc2c1=O	nt	-0.7
CN1C(=O)/C(=C/c2ccccc2Cl)Sc2ccc(C(=O)N3CCN(C(=O)c4ccco4)CC3)cc21	-0.65	-0.45
Cc1[nH]ccc(=O)c1OCc1ccccc1	-0.745&115	0.15
C=CCn1c2ccc(Br)cc2c2n[nH]c(=S)nc21	-0.155	0.55
Cc1nc2ccccc2c(=O)o1	nt	-0.45
CCOC(=O)c1c(C)n(C)c2c1cc(OC(=O)c1ccccc1F)c1ccccc12	-0.34	nt
C=CCn1c(SCc2cccc(C#N)c2)nnc1C12CC3CC(CC(C3)C1)C2	-0.015	-1.2
Cc1cccc(CN2C(=O)C(=O)N(OCc3cccc(Cl)c3)C2=O)c1	0.145	nt
CCOC(=O)c1ccc(NC(=O)c2ccco2)cc1	-0.37	-0.7
CN1CC(=O)Nc2ccccc2C1=O	0.47	-1.35
CN1CCc2nc(SCc3cccnc3)c(C#N)cc2C1	0.715	0.4
O=C(OCC(=O)N1CCCCC1)c1cc2ccccc2oc1=O	nt	-0.55
CC(C)N(C(=O)c1ccc(-c2ccccc2F)cc1)C(C)C	0.615	-0.55
O=C(CCc1c[nH]c2ccccc12)NNC(=O)c1ccc2nsnc2c1	-1.13	nt
COC(=O)Cc1c(C)nc2nc[nH]n2c1=O	-0.225	-0.45
COc1cc(OC)c(OC)cc1CN1CCN(C(=O)c2ccco2)CC1	0.05	0.75
C#CCNCc1ccco1	0.14	0.25
Cc1cc(NC(=O)Nc2cccs2)no1	-0.095	-2.05
Cc1cc(C(=O)N(C)c2c(N)n(Cc3ccccc3)c(=O)[nH]c2=O)c(C)o1	nt	1.25
Cn1c(=O)c2c(nc(CN3CCN(CCO)CC3)n2CCCc2ccccc2)n(C)c1=O	nt	-0.4
NC(=O)C1CCN(C(=O)c2ccc3nc(N4CCCCC4)sc3c2)CC1	0.385	0.35
O=C(NCc1ccccc1)c1cccnc1N1CCCC1	1.87	2.5
COc1cc(OC)cc(C(=O)N[C@H](C(=O)Nc2c(C)n(C)n(-c3ccccc3)c2=O)C(C)C)c1	nt	-0.2
CCOC(=O)c1sc2nc(SCC#N)n(Cc3ccc(C)cc3)c(=O)c2c1C	-0.465	nt
Cc1cccc(N2C(=O)CSC23CCCCC3)c1	0.15	1.2
CC1CN(c2nc3ccccc3nc2C(C#N)C#N)CC(C)O1 (centres undefined)	nt	0.45
O=c1cc(Nc2ccc(OC(F)(F)F)cc2)c2ccccc2o1	0.55	0.75
Cc1cccnc1NC(=O)c1cc2ccccc2oc1=O	0.1	0.45
COc1cc(NC(=O)CSc2nc3ccc(OC)cc3[nH]2)cc(OC)c1	-0.18	nt
CCOC(=O)c1ccc(N=C2SC(C(=O)Nc3ccc(OCC)cc3)CC(=O)N2C)cc1 (centres undefined)	0.075	nt
Cc1ccccc1N=C1C(=O)N(CN2CCC(C)CC2)c2ccccc21	54	0
CN(C)S(=O)(=O)c1ccc(NC(=O)COc2ccccc2)cc1	0.21	0.8
C=C(C)C1=NC(C)(C)CC(C)O1 (centres undefined)	0.305	-0.05
c1csc(-c2noc(CN3CCOCC3)n2)c1	-0.675	-0.65
O=C(N1CCCC1)C12CC3CC(CC(C3)C1)C2	0.93	0.15
O=C(O)CCCCCn1c(SCC(=O)c2ccc(O)c(O)c2)nc2ccsc2c1=O	-0.865	1.15
O=C(OCCN1CCCC1=O)c1ccco1	-0.315	-1.35
Cc1ccc(S(=O)(=O)NC2CCOC(C)(C)C2)cc1 (centres undefined)	-0.435	0.4
N#Cc1ccsc1NC(=O)CCc1ccccc1	-0.215	1.55
COCc1cc(C)nc2oc(C(=O)c3ccccc3)c(N)c12	2.97	nt
COc1ccc(-c2nc3ccccc3n2C(=O)c2ccccc2C(=O)O)cc1OC	-1.82	-0.2
COC(=O)c1ccc(COc2c(I)cc(Cl)c3cccnc23)o1	nt	-1.35
COc1c(Br)csc1C(=O)NN	0.62	-0.05
CCc1ccc(N=Cc2c(O)[nH]c(=S)[nH]c2=O)cc1	-0.27	1.45
CCOC(=O)c1c(NC(=O)COc2ccc(Cl)cc2)sc(C(=O)Nc2cc(C(F)(F)F)ccc2Cl)c1C	2.82	nt
CCN(C(=O)c1cnc2scc(C)n2c1=O)c1ccccc1	-2.17	1.45
S=C(NCC1COc2ccccc2O1)NC1CCCCC1 (centres undefined)	-0.07	1.85
COC(=O)c1ccc(C(C)N(C)C)o1 (centres undefined)	nt	-0.3
CCOC(=O)CSc1cc(Cl)c2cccc(C)c2n1	0.45	0.4
CCOC(=O)c1nc2c3c4c(sc3ncn2n1)COC(C)(C)C4	1.08	0.75
O=c1c2ccccc2[nH]c(=S)n1-c1ccc(Cl)c(Cl)c1	2.4	-0.15
Cc1ccc(-n2c(C)c(C)c(C#N)c2N)cc1	nt	0.8
Cc1cc(C(=O)OC(C)C(=O)Nc2ccc(Oc3ccccc3)cc2)c(C)o1 (centres undefined)	nt	2.8
CC(=O)NC(=O)c1cc2ccc(OC(C)=O)cc2oc1=Nc1ccc(Cl)cc1Cl	-0.71	nt
CC(SCC(=O)NC1CCCCCC1)c1nc2ccccc2c(=O)[nH]1 (centres undefined)	nt	0.15
CCOC(=O)c1ccc(NC(=O)CC(C)(C)CC(=O)O)cc1	-0.075	1.25
Cc1ccccc1NC(=O)C1c2cccc[n+]2CC(=O)N1Cc1ccc2c(c1)OCO2 (centres undefined)	-0.045	0
O=C(Cc1ccccc1)Nc1cccnc1	nt	1.15
CC12CC[C@H](CC1=O)C2(C)C	nt	0.25
